rRNA inh HTS = inhibits bacterial ribosomal RNA function over humanized ribosomes. GFP signal change (wild-type ribosome), % (concentration not given with the values). AID 720706. E. coli WT GFP vs humanized-ribosome RFP mutants, fluorescence, 24 h; active compounds read low; DMSO median 0, no signal -100. 1.6% of 350,000 active;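 active = significant combined selectivity score with lowered wild-type GFP, culture density cut under 30%, mutant RFP and density less affected; inactive = any of these conditions unmet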; also: one replicate is shown; some compounds called inactive have numbers as strong as hits
Ecoli growth = blocks Escherichia coli growth | OD600, 23 h; active compounds read low | OD600 absorbance (no concentration beside the values) | 0.21% of 330,000 active | AID 1053175;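 active = OD600 absorbance below the run mean of sample wells minus 3.6 SD, in any replicate, cut at about 0.56 in these data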;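 also: stock transfer was 300 nL into about 60 µL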
UCH37 DUB inh = inhibitors of human deubiquitinating enzyme UCH37. purified proteasome/UCH37, Ub-AMC cleavage fluorescence. 0.33% of 330,000 active. inhibition, % (concentration not given with the values);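 active = mean of two replicates above 20%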;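 also: 0% = compound-free wells with enzyme and 100% = wells lacking proteasome; stock transfer was 100 nL into about 20 µL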
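System: Proteasome-associated human UCH37 deubiquitinase; Input: 0.15 nM proteasome in added enzyme buffer; Also added: Ub-AMC substrate from 1 µM stock; Incubation: 30 min compound-proteasome preincubation then 25 min substrate reaction, room temperature; Detection: fluorescence, ex 355 nm, em 460 nm; Read-out: % inhibition of Ub-AMC cleavage fluorescence; Benchmarks: no-proteasome and no-compound wells.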
ALR inh = human ALR oxidase inhibition via reduced H2O2. P55789. purified ALR, DTT oxidation, H2O2 HRP-luminol luminescence. inhibition, % (test concentration not listed). 3.8% of 290,000 active. AID 485317;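 active = mean and each replicate at 75% or more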;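 also: stock transfer was 7.5 nL into about 7.5 µL; 0% = neutral wells and 100% = wells with inactivated enzyme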
HNF4A DNA FP = change in binding of human HNF4 alpha to DNA | 0.3% of 360,000 active | HNF4a-FITC DNA binding, fluorescence polarization, 1 h | P41235 | activity change, % at 10 µM; in the data active = activity change above about 30%, passing the limit was not always enough;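 also: controls were the assay level and a saturating level of protein; the project sought stronger binding though the title names inhibitors; some compounds called inactive have numbers as strong as hits; positive values seem to mean higher polarization but the record does not say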
Target sequence (P41235 whole entry, looked up): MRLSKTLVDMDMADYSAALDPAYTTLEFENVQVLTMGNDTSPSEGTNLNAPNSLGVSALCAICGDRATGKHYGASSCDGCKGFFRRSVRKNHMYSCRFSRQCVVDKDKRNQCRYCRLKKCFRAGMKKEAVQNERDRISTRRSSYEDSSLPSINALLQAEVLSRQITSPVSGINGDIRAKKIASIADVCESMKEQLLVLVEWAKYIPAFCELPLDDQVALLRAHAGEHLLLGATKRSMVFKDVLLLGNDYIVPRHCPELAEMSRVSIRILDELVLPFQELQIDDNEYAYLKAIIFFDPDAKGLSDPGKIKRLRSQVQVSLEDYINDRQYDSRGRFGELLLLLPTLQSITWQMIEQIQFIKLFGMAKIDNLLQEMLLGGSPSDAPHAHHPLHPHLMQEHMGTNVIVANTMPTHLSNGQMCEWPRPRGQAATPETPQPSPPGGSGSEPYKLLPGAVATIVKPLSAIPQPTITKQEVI
FGF22 binding = shifts melting point of recombinant human FGF22; recombinant FGF22 thermal shift, SYPRO orange fluorescence; percent of sucrose octasulfate shift, DMSO zero; calls only at 9.99 µM; 1.5% of 340,000 active; AID 651658;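 active = melting point raised past a set limit in the mean and every replicate; three in four hits are not shown here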
Target sequence (Q9HCT0 whole entry, looked up): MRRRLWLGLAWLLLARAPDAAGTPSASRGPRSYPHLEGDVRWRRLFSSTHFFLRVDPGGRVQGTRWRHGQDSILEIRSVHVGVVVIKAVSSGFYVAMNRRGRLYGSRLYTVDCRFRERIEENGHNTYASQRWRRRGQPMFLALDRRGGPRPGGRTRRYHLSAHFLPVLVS
Beta2AR agonist = agonists of human beta-2 adrenergic receptor inducing internalization | Am2.2-beta2AR cells, FAP receptor internalization, flow cytometry; reference of the scale not given here | response, % (test concentration not listed) | 0.43% of 340,000 active | AID 504454;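 active = response above a set limit, near 3 SD of response in nonfluorescent compounds, cut at about 42% in these data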;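 also: stock transfer was 100 nL into about 11 µL; a reference agonist was the positive control; negative values mostly stem from fluorescent compounds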
Target sequence (P07550 whole entry, looked up): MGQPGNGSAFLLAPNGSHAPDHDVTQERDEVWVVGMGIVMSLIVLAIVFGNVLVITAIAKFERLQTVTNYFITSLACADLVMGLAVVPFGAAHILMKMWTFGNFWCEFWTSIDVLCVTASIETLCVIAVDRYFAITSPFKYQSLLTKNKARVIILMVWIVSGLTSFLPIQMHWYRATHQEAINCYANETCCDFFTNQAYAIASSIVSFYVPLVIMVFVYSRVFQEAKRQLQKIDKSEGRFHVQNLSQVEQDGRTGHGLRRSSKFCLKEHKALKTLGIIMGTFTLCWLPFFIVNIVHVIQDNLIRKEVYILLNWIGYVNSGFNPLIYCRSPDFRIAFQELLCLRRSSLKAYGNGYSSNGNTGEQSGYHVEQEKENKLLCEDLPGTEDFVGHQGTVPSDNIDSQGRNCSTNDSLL
rRNA inh HTS OD600 = also measured in rRNA inh HTS; calls as there; OD600 change, %; measured here: OD600 growth;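 optical density of the mix in the first replicate; 0 = DMSO median and -100 = no signal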
rRNA inh HTS RFP = recorded beside rRNA inh HTS, whose call it bears; RFP signal change, %; measured here: RFP humanized mutant strains;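 first replicate; 0 = DMSO median and -100 = no signal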
Starred values were filed as active, the others as inactive.

Screening Cc1ccc(C(=O)Nc2ccc(N3CCN(C(=O)c4ccco4)CC3)cc2)cc1 returned rRNA inh HTS 0.7, Ecoli growth 0.71, UCH37 DUB inh -2.0, ALR inh 0.4, HNF4A DNA FP -3.0, FGF22 binding inactive, Beta2AR agonist 3.1, rRNA inh HTS OD600 -13.6 and rRNA inh HTS RFP -0.6.
`CN(Cc1cccs1)C(=O)c1cc(S(=O)(=O)N2CCOCC2)ccc1N1CCCC1` gave Ecoli growth 0.657, UCH37 DUB inh 0.1, ALR inh -4.6, HNF4A DNA FP 3.5, FGF22 binding inactive and Beta2AR agonist 0.6.
Screening COc1ccc(Cl)cc1NC(=O)CSc1nc(Nc2ccccc2)nc(N2CCOCC2)n1 returned rRNA inh HTS -0.5, Ecoli growth 0.717, UCH37 DUB inh 7.3, ALR inh -1.4, HNF4A DNA FP 10.4, FGF22 binding inactive, Beta2AR agonist -0.3, rRNA inh HTS OD600 2.8 and rRNA inh HTS RFP 1.3.
Cc1cn2c(nc(=O)c3cccnc32)s1 was read as Ecoli growth 0.686, UCH37 DUB inh -169.0, ALR inh 2.1, HNF4A DNA FP 1.0 and Beta2AR agonist -2.1.
Screening NNC(=O)c1ccc(COc2ccc([N+](=O)[O-])cc2)o1 returned rRNA inh HTS 4.8, Ecoli growth 0.696, UCH37 DUB inh 4.3, ALR inh 50.4, HNF4A DNA FP 2.6, FGF22 binding inactive, Beta2AR agonist 1.8, rRNA inh HTS OD600 7.6 and rRNA inh HTS RFP 2.7.
`CN(CC(=O)Nc1cccc(F)c1)C(=O)c1ccc(C(=O)c2ccccc2)cc1` gave rRNA inh HTS -11.2, Ecoli growth 0.635, UCH37 DUB inh -1.3, HNF4A DNA FP -4.3, FGF22 binding inactive, Beta2AR agonist -7.5, rRNA inh HTS OD600 -18.9 and rRNA inh HTS RFP 3.3.
For CCN1C(=O)CC(N2CCOCC2)C1=O (stereo not drawn) the results were Ecoli growth 0.724, UCH37 DUB inh 1.2, ALR inh -14.9, HNF4A DNA FP 3.0 and Beta2AR agonist 2.8.
Screening Oc1c(Br)cc2oc3c(c2c1CNCc1ccccc1)CCCC3 returned Ecoli growth 0.714, UCH37 DUB inh 6.7, ALR inh -18.6, HNF4A DNA FP 3.4 and Beta2AR agonist -7.5.
For CC(=O)OC(C#CCN1CCOCC1)c1ccccc1 (stereo not drawn) the results were rRNA inh HTS 1.4, Ecoli growth 0.714, UCH37 DUB inh 2.5, ALR inh -1.9, HNF4A DNA FP 0.5, Beta2AR agonist -3.3, rRNA inh HTS OD600 9.5 and rRNA inh HTS RFP -3.9.
For Cc1cc(S(=O)(=O)NC(=O)[C@H]2O[C@@H](n3cnc4c(N)ncnc43)[C@H](O)[C@@H]2O)ccc1Br the results were rRNA inh HTS 14.0, HNF4A DNA FP -2.1, FGF22 binding inactive, rRNA inh HTS OD600 3.5 and rRNA inh HTS RFP 2.1.
CN(C(=O)COC(=O)c1ccc2c(c1)OCO2)c1c(N)n(Cc2ccccc2)c(=O)[nH]c1=O was read as rRNA inh HTS 6.9, Ecoli growth 0.599, UCH37 DUB inh 1.5, ALR inh 0.8, HNF4A DNA FP -0.8, FGF22 binding inactive, Beta2AR agonist -3.0, rRNA inh HTS OD600 11.9 and rRNA inh HTS RFP -1.5.
For COc1ccc(C(C)(C)C)cc1NS(=O)(=O)c1cccc2cccnc12 the results were rRNA inh HTS -16.8, Ecoli growth 0.665, UCH37 DUB inh -0.4, ALR inh -2.7, HNF4A DNA FP 0.7, FGF22 binding inactive, Beta2AR agonist -12.0, rRNA inh HTS OD600 -33.1 and rRNA inh HTS RFP -4.7.
COc1ccc(CN2CCN(Cc3c[nH]c4ccccc34)CC2CCO)cc1C (stereo not drawn) was read as rRNA inh HTS 5.9, Ecoli growth 0.641, UCH37 DUB inh 1.3, ALR inh -9.5, HNF4A DNA FP -6.1, FGF22 binding inactive, Beta2AR agonist 19.4, rRNA inh HTS OD600 0.3 and rRNA inh HTS RFP 13.1.
COc1ccc(C2NC(=O)CCC2[N+](=O)[O-])cc1OC (stereo not drawn) was read as rRNA inh HTS 1.3, Ecoli growth 0.704, UCH37 DUB inh 4.2, ALR inh -2.8, HNF4A DNA FP 0.1, FGF22 binding inactive, Beta2AR agonist 21.9, rRNA inh HTS OD600 12.3 and rRNA inh HTS RFP -2.1.
For CCOc1ccc(-c2cn(S(=O)(=O)c3cccc4nsnc34)nc2N)cc1 the results were Ecoli growth 0.76, UCH37 DUB inh 3.3, ALR inh 45.7, HNF4A DNA FP -2.8 and Beta2AR agonist 8.0.
For Nc1nc(C(c2ccccc2)c2ccccc2)cs1 the results were rRNA inh HTS -11.7, Ecoli growth 0.701, UCH37 DUB inh 5.8, ALR inh -3.2, HNF4A DNA FP -4.8, FGF22 binding inactive, Beta2AR agonist 3.0, rRNA inh HTS OD600 -19.1 and rRNA inh HTS RFP -0.4.
For Cc1cc(N2C(=O)C3CCC(c4ccccc4)CC3C2=O)no1 (stereo not drawn) the results were rRNA inh HTS 4.7, Ecoli growth 0.693, UCH37 DUB inh 1.1, ALR inh -16.6, HNF4A DNA FP -0.1, FGF22 binding inactive, Beta2AR agonist 1.1, rRNA inh HTS OD600 -3.1 and rRNA inh HTS RFP -2.6.
For CN1CCN(C(=O)C(Cc2ccccc2)NS(=O)(=O)c2ccc3c(c2)CCC(=O)N3)CC1 (stereo not drawn) the results were rRNA inh HTS 2.6, Ecoli growth 0.728, UCH37 DUB inh 1.0, HNF4A DNA FP -2.3, FGF22 binding inactive, Beta2AR agonist 7.6, rRNA inh HTS OD600 -6.2 and rRNA inh HTS RFP 1.6.
Screening O=C(O)c1ccc(S(=O)(=O)NCC2CCCCC2)cc1 returned rRNA inh HTS -0.4, Ecoli growth 0.691, UCH37 DUB inh 2.0, ALR inh -11.7, HNF4A DNA FP 72.5*, FGF22 binding inactive, Beta2AR agonist 1.4, rRNA inh HTS OD600 3.7 and rRNA inh HTS RFP -0.6.
Screening CCN(CC)S(=O)(=O)c1ccc(N2CCOCC2)c(C(=O)O)c1 returned Ecoli growth 0.705, UCH37 DUB inh 4.8, ALR inh -7.9, HNF4A DNA FP -0.2 and Beta2AR agonist -3.7.
Screening Cc1cc(NC(=O)CN2C(=O)NC(C)(CCc3ccccc3)C2=O)no1 (stereo not drawn) returned rRNA inh HTS 7.8, Ecoli growth 0.678, UCH37 DUB inh 1.2, ALR inh 3.2, HNF4A DNA FP -1.4, FGF22 binding inactive, Beta2AR agonist -0.2, rRNA inh HTS OD600 -2.2 and rRNA inh HTS RFP -13.5.
`C#CCOCCOCCOCCNc1nc(N2CCN(C(=O)[C@H]([C@@H](C)O)n3cc(CCCCN)nn3)CC2)nc(N2CCN(C(=O)[C@H](CCCCN)n3cc(CCCC)nn3)CC2)n1` gave rRNA inh HTS 8.0, UCH37 DUB inh -3.5, ALR inh 6.3, HNF4A DNA FP -1.9, FGF22 binding inactive, Beta2AR agonist -1.2, rRNA inh HTS OD600 9.2 and rRNA inh HTS RFP -0.5.
For CCN(CC1CCCN(CCc2cccc(F)c2)C1)C(=O)c1ccc(CSC)o1 (stereo not drawn) the results were rRNA inh HTS -1.6, Ecoli growth 0.704, UCH37 DUB inh 4.0, ALR inh -5.6, HNF4A DNA FP 0.9, FGF22 binding inactive, Beta2AR agonist -3.1, rRNA inh HTS OD600 -5.3 and rRNA inh HTS RFP -3.1.
Screening CCN(CC)C(=O)CC(c1cc(OC)c(OC)c(OC)c1)c1c(OC)cc(OC)c2c(-c3ccccc3)cc(=O)oc12 (stereo not drawn) returned Ecoli growth 0.708, UCH37 DUB inh -1.3, ALR inh -27.2, HNF4A DNA FP -29.3 and Beta2AR agonist 11.0.
C/C(=N\NC(=O)CNC(=O)c1ccc2c(c1)OCO2)c1ccco1 was read as rRNA inh HTS 9.3, ALR inh -8.4, HNF4A DNA FP 2.6, FGF22 binding inactive, Beta2AR agonist -7.1, rRNA inh HTS OD600 9.3 and rRNA inh HTS RFP -0.3.
NC(c1csc(Nc2ccccn2)n1)c1ccccc1Cl (stereo not drawn) was read as rRNA inh HTS -4.7, HNF4A DNA FP -0.9, FGF22 binding inactive, rRNA inh HTS OD600 -31.5 and rRNA inh HTS RFP 4.0.
`Cc1c(CN2CCc3c([nH]c4ccccc34)C2CC(C)C)cnn1C` (stereo not drawn) gave rRNA inh HTS 14.1, Ecoli growth 0.678, UCH37 DUB inh -20.4, ALR inh 10.1, HNF4A DNA FP -1.2, FGF22 binding inactive, Beta2AR agonist -10.1, rRNA inh HTS OD600 14.9 and rRNA inh HTS RFP -0.3.
Screening Cc1ccc(C)c(OCc2cc(C(=O)N3CCNC(=O)C3)no2)c1 returned rRNA inh HTS 0.6, Ecoli growth 0.652, UCH37 DUB inh 0.9, ALR inh -2.6, HNF4A DNA FP 2.8, FGF22 binding inactive, Beta2AR agonist -4.2, rRNA inh HTS OD600 -1.1 and rRNA inh HTS RFP 3.4.
`CCOC(=O)[C@]12CCC=C1N(Cc1ccco1)C(=O)[C@H](CC(=O)N1CCSCC1)C2` gave rRNA inh HTS 30.9, HNF4A DNA FP -2.5, FGF22 binding inactive, rRNA inh HTS OD600 20.8 and rRNA inh HTS RFP 4.7.
Screening NS(=O)(=O)c1ccc(CCNC(=O)CSc2nc3c(sc(=S)n3-c3ccccc3)c(=O)[nH]2)cc1 returned rRNA inh HTS 4.3, HNF4A DNA FP -1.1, FGF22 binding inactive, rRNA inh HTS OD600 5.5 and rRNA inh HTS RFP 0.5.

Next section; it opens with the 3 that closed the last part.
Screening Cc1ccc(C)c(OCc2cc(C(=O)N3CCNC(=O)C3)no2)c1 returned rRNA inh HTS 0.6, Ecoli growth 0.652, UCH37 DUB inh 0.9, ALR inh -2.6, HNF4A DNA FP 2.8, FGF22 binding inactive, Beta2AR agonist -4.2, rRNA inh HTS OD600 -1.1 and rRNA inh HTS RFP 3.4.
`CCOC(=O)[C@]12CCC=C1N(Cc1ccco1)C(=O)[C@H](CC(=O)N1CCSCC1)C2` gave rRNA inh HTS 30.9, HNF4A DNA FP -2.5, FGF22 binding inactive, rRNA inh HTS OD600 20.8 and rRNA inh HTS RFP 4.7.
Screening NS(=O)(=O)c1ccc(CCNC(=O)CSc2nc3c(sc(=S)n3-c3ccccc3)c(=O)[nH]2)cc1 returned rRNA inh HTS 4.3, HNF4A DNA FP -1.1, FGF22 binding inactive, rRNA inh HTS OD600 5.5 and rRNA inh HTS RFP 0.5.
`CCN(CC)S(=O)(=O)c1ccc(Cl)c(NC2=NCCCCC2)c1` gave rRNA inh HTS 4.8, Ecoli growth 0.704, UCH37 DUB inh 2.4, ALR inh -0.8, HNF4A DNA FP -0.3, FGF22 binding inactive, Beta2AR agonist -6.1, rRNA inh HTS OD600 -2.4 and rRNA inh HTS RFP -0.6.
For COC(=O)c1cc(NCc2ccc3c(c2)OCO3)ccc1N1CCOCC1 the results were Ecoli growth 0.672, UCH37 DUB inh -42.9, ALR inh -0.8, HNF4A DNA FP 0.2 and Beta2AR agonist 5.8.
`CCOC(=O)C1Cc2c([nH]c3ccccc23)C(C)N1` (stereo not drawn) gave rRNA inh HTS 3.8, Ecoli growth 0.671, UCH37 DUB inh -0.6, ALR inh 37.9, HNF4A DNA FP 1.8, FGF22 binding inactive, Beta2AR agonist -2.9, rRNA inh HTS OD600 3.2 and rRNA inh HTS RFP 1.1.
CCCn1c(N)c(C(=O)COC(=O)CCNS(=O)(=O)c2ccccc2F)c(=O)[nH]c1=O was read as rRNA inh HTS -4.5, Ecoli growth 0.618, UCH37 DUB inh 1.6, ALR inh 3.9, HNF4A DNA FP -0.3, FGF22 binding inactive, Beta2AR agonist -4.0, rRNA inh HTS OD600 0.8 and rRNA inh HTS RFP 1.8.

Not all compounds are listed; rates above refer to the full screens.
